2A Renilla: FMDV 2A StopGo reporter, Renilla signal | HEK cells with a luciferase reporter of 2A StopGo recoding | Potency, µM (titrated, usually from 57.5 µM), without a hit: top-dose signal change, negative = less light | actives 0.32% (n = 120,000) | AID 1745857; active means well fitted falling curve with a large enough effect; inconclusive means small, poorly fitted or top-dose-only effect; inactive means no such curve, though single readings can be large or run the other way; note: nearly all actives have a fitted effect of over 55% in size; overnight with compound
2A firefly: FMDV 2A StopGo reporter, firefly signal | HEK cells with a luciferase reporter of 2A StopGo recoding | Potency, µM (series often up to 57.5 µM), inactives show top-dose signal change, negative = less light | actives 0.23% (n = 120,000); active = well fitted falling curve with a large enough effect; inconclusive = small, poorly fitted or top-dose-only effect; inactive = no such curve, though single readings can be large or run the other way; note: nearly all actives have a fitted effect of over 60% in size; overnight with compound
* marks the source's active call; other numbers are inactive results; ? = inconclusive; & = joins results of further samples; [ ] = another dose, or the depositor's remark. % is set by controls: 0 for no effect and ±100 for the full control effect; potency is the fitted concentration of half-maximal effect. These rows are one share of the data, so the mix of outcomes need not match the whole.

Values run as follows: 2A Renilla | 2A firefly
Cc1cc(NS(=O)(=O)c2ccc(N)cc2)no1
→ -6.1% | -16.1%
O=C(CCN1C(=O)c2ccccc2S1(=O)=O)Nc1ccccc1
→ -2.3% | 0.0%
CC(C)(C)c1ccc(NC(=O)C2CCCC2)cc1
→ 33.8% | 194.7%[activator]
COc1ccc(Cl)cc1-n1c(/C=C/c2cccc3ccccc23)nc2ccccc2c1=O
→ 23.5% | -23.3%
O=C(Cn1ccc2cc(S(=O)(=O)N3CCCCC3)ccc21)NCCc1ccccc1Cl
→ 121.4%[activator] | -9.5%
Cc1ccc2oc(-c3cccc(NC(=O)c4cccc([N+](=O)[O-])c4C)c3)nc2c1
→ 4.1% | 36.2%
O=C(C1CCN(S(=O)(=O)Cc2ccccc2)CC1)N1CCN(c2ccccc2)CC1
→ -0.8% | -11.6%
Cc1sc2c(c1C)CN(CCN1CCOCC1)CN2C(=O)c1ccccc1
→ -4.3% | 190.3%[activator]
Cc1ccc(NC(=O)c2cc(-c3ccccn3)nc3ccc(C)cc23)cc1
→ -0.9% | -1.8%
Cc1ccc(NC(=O)C2=Cc3sc4c(c3CS2)CCCC4)cc1C
→ 1.3% | 80.5%[activator]
COc1ccc(-c2cn3c(n2)sc2cc(C(=O)NCc4cccs4)ccc23)cc1
→ 17.8% | 22.5%
O=C(NCCSc1ccc(Cl)cc1)c1ccc2c(c1)OCCCO2
→ 14.7% | 0.0%
Cc1ccc(-c2c(C)nn3c2NC(=O)CCC3=O)cc1S(=O)(=O)NCc1ccco1
→ 34.6%[activator] | -2.2%
CCOC(=O)c1c(NC(=O)c2cc3ccccc3c(=O)o2)sc2c1CCC(C(C)(C)C)C2 (stereo unspecified)
→ -10.0% | -12.1%
COC(=O)c1ccc(OC)c(Cn2c(=O)n(-c3cccc(Cl)c3)c(=O)c3c2c2cc(C)ccc2n3C)c1
→ -9.1% | -14.1%
Cc1ccccc1NC(=O)CCn1nc(C)c(S(=O)(=O)N2CCCCC2)c1C
→ 0.0% | -14.7%
COc1ccc(-c2noc(CSc3nnc(Cc4ccccc4)n3-c3cccc(C)c3)n2)cc1
→ ? | ?
N#Cc1cccc(OCc2coc(-c3cccc(F)c3)n2)c1
→ 2.4% | 141.7%[activator]
Cn1c(=O)c2c(c3ccccc31)OC(=O)CC2c1cccc(Cl)c1 (stereo unspecified)
→ -5.0% | -2.6%
CCCN(C(=O)c1ccc2c(=O)n3c(nc2c1)CCCC3)c1ccc(C(C)C)cc1
→ ? | ?
CC1CCN(S(=O)(=O)c2ccc3c(c2)CCC(=O)N3CC(=O)N2CCC3(CC2)OCCO3)CC1
→ 5.1% | 11.4%
COc1ccc(N2CCN(c3oc(/C=C/c4cccc(OC)c4)nc3C#N)CC2)cc1
→ -11.6% | ?
O=S(=O)(Nc1cccc(-c2nnnn2C2CC2)c1)c1ccccc1F
→ 203.3%[activator] | -2.6%
CC(=O)COC(=O)c1cc2ccccc2[nH]1
→ 5.5% | 91.6%[activator]
Clc1ccc2c(c1)nc(CN1CCOCC1)n2Cc1ccccc1
→ 24.3% | 9.9%
CCOC(=O)c1cc(-c2ccccc2)n(CCC(=O)Nc2ccc(Cl)c(C(F)(F)F)c2)c1C
→ -15.4% | -20.3%
COc1ccccc1N1CCN(C(=O)Cn2ncc3c(=O)oc4ccccc4c32)CC1
→ -5.5% | -16.6%
Cc1ccc2cccc(NC(=O)COc3ccccc3C)c2n1
→ -6.3% | 2.0%
Cc1ccc(F)cc1NC(=O)c1nn(-c2ccccc2)c(=O)c2ccccc12
→ 3.7% | 2.3%
CN(C(=O)CC(=O)Nc1ccc2nc3n(c(=O)c2c1)CCCCC3)c1ccccc1F
→ -4.2% | 13.5%
COc1cccc(CNC(=O)c2nnc(Cc3ccc(Cl)cc3)o2)c1
→ 5.5% | -0.1%
CC1Sc2ccc(S(=O)(=O)CCC(=O)NCCC3=CCCCC3)cc2NC1=O (stereo unspecified)
→ -22.0% | ?
COc1cccc(CNC(=O)Cn2c(=O)ccc3cc(S(=O)(=O)N4CCC(C)CC4)ccc32)c1
→ -0.2% | ?
CCOC(=O)C1=C(CN2CCC(C)CC2)NC(=O)NC1c1ccc(OC(C)C)cc1 (stereo unspecified)
→ 0.5% | -4.5%
O=c1cc(-c2ccccc2)oc2cc(OCc3ccccc3)cc(OCc3ccccc3)c12
→ -5.1% | ?
Cc1cc(C)cc(Nc2cc(C(=O)NC3CCCCC3)c3ccccc3n2)c1
→ -9.6% | -8.3%
CCOc1ccc(-c2nc(SCC(=O)Nc3cc(F)ccc3F)n3[nH]c(=O)cc3n2)cc1
→ -3.3% | -5.8%
Cc1cccc(NC(=O)CSc2nc(C3CCCC3)nc3c2c(=O)n(C)c(=O)n3C)c1C
→ -8.6% | -2.8%
COCCNC(=O)c1c[nH]c2ccc(S(=O)(=O)Nc3ccc(F)cc3F)cc2c1=O
→ 58.9%[activator] | 4.5%
Cc1ccc(/C=C/c2onc(C)c2S(=O)(=O)N2CCC(C(=O)N3CCC(N(C)C(C)C)CC3)CC2)cc1
→ 26.7% | -11.8%
Cc1cccc(-c2ocnc2C(=O)Nc2ccc(C)cc2Cl)c1
→ -5.9% | -0.9%
O=c1c2cc(Cl)ccc2ncn1Cc1nc(-c2ccccc2)no1
→ 12.3% | 21.8%
C=CCNC(=S)NC(=O)c1cc(Br)ccc1Cl
→ 5.4% | 15.0%
COc1ccc(C(=O)Nc2nc3ccccc3c(=O)[nH]2)cc1
→ 5.1% | 189.2%[activator]
CCCOc1cc(C)c(S(=O)(=O)Nc2cccnc2)cc1C
→ 28.0% | ?
O=S1(=O)c2c(NCc3ccco3)cccc2Oc2ccccc2CN1Cc1cn(Cc2ccc(F)cc2)nn1
→ 70.3%[activator] | 8.7%
CCc1ccc(N(CC)C(=O)c2cn(C)c(=O)c3cc(OC)c(OC)cc23)cc1
→ 6.2% | -8.2%
CCC12CN3CC(CC)(CN(C1)C3c1cc(Br)ccc1OC)C2=O (stereo unspecified)
→ -22.3%&-20.3% | -19.0%&-21.7%
COc1cc(OC)cc(-c2cc3nc(C)c(CCC(=O)NCc4ccc(Cl)cc4)c(C)n3n2)c1
→ 5.2% | ?
CN1CCN(c2nc3ccccc3nc2C(=O)Nc2ccc(F)c(Cl)c2)CC1
→ -20.0% | -19.8%
CCCCNc1nc2c(S(=O)(=O)c3ccc(Br)cc3)nnn2c2ccsc12
→ -6.4% | -22.9%
COc1ccc(OC)c(NC(=O)C2CCN(S(=O)(=O)c3ccc4c(c3)CCCC(=O)N4)CC2)c1
→ 12.3% | 5.5%
N#Cc1ccc(NS(=O)(=O)c2ccc(-c3cnc(C4CC4)o3)cc2)cc1
→ 308.9%[activator] | 6.5%
COc1ccc(CN(C)CC(=O)Nc2cc(C)nn2-c2ccccc2C)cc1
→ -1.8% | -11.0%
Cc1nc(C)c(-c2ccc(SCC(=O)Nc3ccccc3F)nn2)s1
→ 0.0% | 14.9%
CCCN1C(=O)CCc2cc(NS(=O)(=O)c3cc(C)ccc3C)ccc21
→ 79.8%[activator] | ?
c1ccc2c(c1)C(=Nn1c3ccccc3c3ccccc31)c1ccccc1-2
→ 13.0% | 6.0%
COc1cc(/C=N/OC(C)=O)cc(OC)c1OC
→ 6.6% | 8.2%
Cc1ccc(C)c(Oc2nc(-c3ccncc3)nc3ccccc23)c1
→ -15.5% | -17.7%
O=C(NCc1ccncc1)c1nc(-c2ccc(Br)o2)no1
→ -13.5% | -5.6%

(next part)
Values run as follows: 2A Renilla | 2A firefly
O=C(Cn1cc(C(=O)c2ccco2)c2ccccc21)Nc1ccccc1
→ 17.0% | -3.7%
O=C(c1cc(Br)c(Br)s1)N(Cc1ccccc1)C1CC1
→ 75.7%[activator] | 10.2%
Cc1ccc(NC(=O)CCS(=O)(=O)c2cccc3nonc23)cc1Cl
→ -0.4% | 11.3%
Cc1ccc(-c2cc(C)c(-c3ccc(C)cc3)nn2)cc1
→ 39.5%[activator] | 255.2%[activator]
CCONC(=O)CC1Sc2ccc(C(F)(F)F)cc2NC1=O (stereo unspecified)
→ 6.1% | 1.4%
CCc1cccc2c(C(=O)CN3C(=O)NC4(CCOc5ccccc54)C3=O)c[nH]c12 (stereo unspecified)
→ ? | ?
COc1ccc(-n2c(SCC(=O)c3ccc(Cl)cc3)nc3c([nH]c4ccccc43)c2=O)cc1
→ -12.3% | -2.1%
CCN(c1cc(C)cc(C)c1)S(=O)(=O)c1nnc(NC(=O)c2ccco2)s1
→ 38.5%[activator] | -12.8%
Cc1nc(-c2cccc(F)c2)sc1CCNC(=O)CC(C)C
→ 0.0% | 137.3%[activator]
c1ccc(NC2(c3nnnn3C3CCCCC3)CCCCC2)cc1
→ -2.7% | -3.5%
Cc1coc2cc3oc(=O)c(CC(=O)NCCc4ccccc4F)c(C)c3cc12
→ -5.1% | -11.7%
c1ccc(OCCCN2CCC(c3nc4ccccc4s3)CC2)cc1
→ 3.9% | 0.0%
CC(=O)c1ccc(OC(=O)C2(c3ccccc3)CCC2)cc1
→ -5.3%[1.06 µM] | 0.6%
CC(=O)N1CCN(S(=O)(=O)c2ccc(C(=O)N(C)Cc3ccccc3N3CCCCC3)cc2)CC1
→ 2.1% | -9.6%
COc1cccc(C(=O)Nc2ccccc2C(=O)OCc2cc(=O)n3nc(C4CC4)sc3n2)c1
→ 0.7% | -10.4%
O=C(Cn1c(=O)oc2cc(S(=O)(=O)NCc3ccccc3)ccc21)Nc1ccc(F)c(Cl)c1
→ 66.1%[activator] | -14.5%
C=C(Cl)CN1CCC(C(=O)OCC)CC1
→ -10.3% | -7.5%
CC(C)C[C@@H]1COc2cccc(F)c2S(=O)(=O)N1C
→ 15.4% | 10.3%
COCC(C)NC(=O)C1CCN(Cc2ccc(C)cc2)CC1 (stereo unspecified)
→ -2.5% | -1.6%
CC(C)(C)CC(C)(C)NCc1ccco1
→ -3.0% | -7.6%
O=C(Oc1ccc(Br)c2ccccc12)C(c1ccccc1)c1ccccc1
→ -4.8% | 5.4%
COc1ccc(Cl)cc1NC(=O)/C(C#N)=C/c1coc2c(Cl)cc(Cl)cc2c1=O
→ -25.9% | -22.5%
Cc1ccc(C(=O)CC(=O)c2ccc(C)cc2C)c(C)c1
→ -24.0% | 15.0%
CC(C)c1ccc(CNCCCn2ccnc2)cc1
→ 0.3% | -13.3%
CCOC(=O)c1cnc2nc(-c3ccncc3)nn2c1C
→ 11.9% | 132.2%[activator]
Cc1ccc2c(=O)c(C(=O)c3ccccc3)cn(CC(=O)Nc3ccc4c(c3)OCCO4)c2n1
→ -8.5% | -0.7%
Cc1ccnc(NC(=O)c2nc(-c3ccccc3)oc2C)c1
→ -3.5% | 171.6%[activator]
CC(C)Nc1nnc(SCc2nc(-c3ccc(F)cc3)no2)s1
→ ? | ?
Cc1noc(-c2cc(Br)cc(Br)c2O)n1
→ 0.0% | -4.6%
COc1cccc(CN2C(=O)c3ccccc3Sc3ccc(C(=O)NCCc4ccc(C)cc4)cc32)c1
→ -5.6% | -3.5%

An excerpt from above in order of count of non-hydrogen atoms, low to high.
Values run as follows: 2A Renilla | 2A firefly
CCONC(=O)CC1Sc2ccc(C(F)(F)F)cc2NC1=O (stereo unspecified)
→ 6.1% | 1.4%
CCCN(C(=O)c1ccc2c(=O)n3c(nc2c1)CCCC3)c1ccc(C(C)C)cc1
→ ? | ?
CC1CCN(S(=O)(=O)c2ccc3c(c2)CCC(=O)N3CC(=O)N2CCC3(CC2)OCCO3)CC1
→ 5.1% | 11.4%

The listing continues.
Values run as follows: 2A Renilla | 2A firefly
O=c1oc2ccccc2c(N2CCN(c3ccccc3F)CC2)c1CN1CCCC1
→ -11.6% | -19.2%
Cc1nn2c(=O)cc(CSc3nnc(-c4cccc(Cl)c4)o3)nc2s1
→ -13.4% | -12.9%
Cc1ccc(S(=O)(=O)N2CCN(Cc3coc(-c4cccs4)n3)CC2)cc1
→ -17.5% | ?
CCN(Cc1ccccc1)C(=O)CN1C(=O)COc2ccc(S(=O)(=O)N3CCCCCC3)cc21
→ 25.9% | -24.1%
COc1cccc(C2CC(=O)Nc3nc(N)sc32)c1OCC(C)C (stereo unspecified)
→ 10.2% | 1.4%
CCCOc1ccc(C(=O)N2CCC(c3nc4ccccc4s3)CC2)cc1
→ 6.3% | -12.5%
COc1ccc(CNc2nc(-c3ccco3)nn2S(=O)(=O)c2ccc(Cl)cc2)cc1OC
→ 17.5% | -0.6%
Cc1ccc(S(=O)(=O)c2nc(-c3ccc(F)cc3)oc2N2CCN(c3ccccc3)CC2)cc1
→ -11.1% | -14.4%
CC(C)(C)C(=O)Nc1ccc(-c2nc3ccc(NC(=O)C(C)(C)C)cc3[nH]2)cc1
→ 16.0% | 112.6%[activator]
COc1ccc(/C=C(/C(=O)c2ccccc2)c2nc3ccccc3s2)cc1
→ -29.4% | 0.0%
CCn1c(SC(C)C(=O)Nc2cccc(F)c2)nc2ccccc2c1=O (stereo unspecified)
→ 20.7% | 11.1%
COc1ccc2cc(CNC(=O)Cc3n[nH]c(=O)c4ccccc34)ccc2c1
→ -1.1% | 15.8%
Cc1ccc(Cn2c(N3CCOCC3)nc3c2c(=O)[nH]c(=O)n3C)cc1
→ -0.9% | -3.0%
C=CCNC(=S)NNC(=O)c1ccc(C)cc1
→ 10.9% | 100.0%[activator]
CCCCN(CC)C(=O)Cn1cc2c(n1)-c1c(oc(C(=O)N3CCCC3)c1C)CC2
→ -6.4% | -6.3%
Cc1c(-c2ccc(Cl)cc2)c(=O)oc2ccc(OS(C)(=O)=O)cc12
→ -6.5% | 19.4%
CCC1CN(C(=O)N2CCC(C(=O)NCc3cc(OC)ccc3OC)CC2)c2ccccc2O1 (stereo unspecified)
→ -11.1% | -20.6%

Screens from PubChem BioAssay.
